Screens: PubChem, National Center for Advancing Translational Sciences (NCATS)
PMP22 txn prim = Cell-based coincidence reporter assay to measure PMP22 gene transcription in S16 Pmp22-F2sN cells - Primary screen | S16 Pmp22-F2sN Schwann cells (luciferase reporters placed in the Pmp22 gene), FLuc/NLuc coincidence luminescence, 24 h | Potency, µM (doses to about 57.5 µM), without a hit: top-dose activity change, negative = inhibition, hits mostly inhibitors | 2% of 43,000 active | AID 1508649, 2021; active = clear falling dose curves in both reporters; inconclusive = both reporters move, but less clearly or upward; inactive = either reporter flat; the % is the NLuc reporter signal; note: % is set by controls: 0 for no effect and ±100 for the full control effect; some results filed as inactive show a strong effect at the top dose
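qHTS, 1536-well. Cells seeded, compounds added by pin tool, 24 h 37C. Nano-Glo reagent 1 (lysis/FLuc), 10 min RT, read; Stop&Glo, 10 min RT, read NLuc.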
HTT promoter inh = Primary qHTS for Identification of Small Molecule Inhibitors of Huntingtin Promoter Activity; HEK293 HTT promoter firefly luciferase reporter (activity 0% = vehicle and -100% = no light), 24 h; 0.93% of 48,000 active; Potency, µM (titrated, usually from 57.5 µM), without a hit: top-dose activity change, negative = inhibition, usual class: inhibitors; active = well fitted inhibition curve with a large enough effect; inconclusive = small, poorly fitted or top-dose-only effect; inactive = no such curve, though single readings can be large or run the other way; note: nearly all actives have a fitted effect of over 50% in size
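HEK293 luciferase promoter-reporter cells (2,500/well) plated 24 h, then compounds added at up to 57.5 uM final for 24 h at 37 °C. Firefly luminescence by Dual-Glo, normalized to vehicle (0%) and zero RLU (-100%).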
* hit, by the source's call; [ ] = another dose, or the depositor's remark. Potency is the fitted concentration of half-maximal effect.

How did CC(=O)c1cccc(NC(=O)Cn2c(SCC(=O)Nc3ccc(F)cc3)nc3ccccc32)c1 do in these assays?
PMP22 txn prim: 9%; HTT promoter inh: -32%

How did O=S(=O)(NCCc1csc2nc(-c3ccc(F)cc3)nn12)c1ccc(Oc2ccccc2)cc1 do in these assays?
PMP22 txn prim: inconclusive; HTT promoter inh: inconclusive

Results for CCc1ccccc1Nc1sc(C(=O)c2cccc(OC)c2)c(N)c1S(=O)(=O)c1ccccc1 ?
PMP22 txn prim: -2%; HTT promoter inh: inconclusive

What do the screens show for `CC1CCn2c(nc3cc(C(=O)NCCc4ccc(Cl)cc4)ccc32)C1` (centres undefined)?
PMP22 txn prim: -28%; HTT promoter inh: -6%

Results for CC(=O)Nc1ccc(NC(=O)CSc2cn(CC(=O)N(C(C)C)C(C)C)c3ccccc23)cc1 ?
PMP22 txn prim: 0%; HTT promoter inh: -4%

Results for CC(=O)c1cccc(NC(=O)C2CCN(S(=O)(=O)c3ccc4c(c3)oc(=O)n4C)CC2)c1 ?
PMP22 txn prim: -1%; HTT promoter inh: -12%

What do the screens show for `CCOc1ccc(-n2c(=O)c3c(C)c(C)sc3n(Cc3ccccc3C)c2=O)cc1`?
PMP22 txn prim: -18%; HTT promoter inh: -6%

Results for CNC(=O)C(=O)NCC(c1ccc2c(c1)OCO2)N1CCOCC1 (centres undefined) ?
PMP22 txn prim: -6%; HTT promoter inh: -14%

What do the screens show for `O=C(CN1C(=O)COc2ccc(S(=O)(=O)NC3CCCC3)cc21)Nc1ccc(Cl)cc1`?
PMP22 txn prim: -19%; HTT promoter inh: 0%

How did Cc1ccc(N(CC(C)C)S(=O)(=O)c2nnc(NC(=O)c3cccs3)s2)cc1 do in these assays?
PMP22 txn prim: -44%; HTT promoter inh: -1%

What do the screens show for `Cc1cc(C)c(NC(=O)Cn2c(=O)n(CCc3ccccc3)c(=O)c3ccccc32)c(C)c1`?
PMP22 txn prim: -75%; HTT promoter inh: -1%

How did Cc1ccc(-c2c3c(=O)n(C)c(=O)n(C)c3cn2-c2cc(C)ccc2O)cc1 do in these assays?
PMP22 txn prim: 2%; HTT promoter inh: -20%

3 entries out of the list, arranged by SMILES length, ascending.
What do the screens show for `CC1CCn2c(nc3cc(C(=O)NCCc4ccc(Cl)cc4)ccc32)C1` (centres undefined)?
PMP22 txn prim: -28%; HTT promoter inh: -6%

What do the screens show for `Cc1cc(C)c(NC(=O)Cn2c(=O)n(CCc3ccccc3)c(=O)c3ccccc32)c(C)c1`?
PMP22 txn prim: -75%; HTT promoter inh: -1%

Results for CC(=O)Nc1ccc(NC(=O)CSc2cn(CC(=O)N(C(C)C)C(C)C)c3ccccc23)cc1 ?
PMP22 txn prim: 0%; HTT promoter inh: -4%

Later entries.
What do the screens show for `COc1ccc(NC(=O)CSc2oc(-c3cccs3)nc2S(=O)(=O)c2ccc(C)cc2)c(OC)c1`?
PMP22 txn prim: 60%; HTT promoter inh: -28%

What do the screens show for `COC(=O)c1ccc(NC(=O)CSc2nnc3c4ccccc4n(C(C)C)c3n2)cc1`?
PMP22 txn prim: -24%; HTT promoter inh: 9%

What do the screens show for `Cc1cc(C)c2oc(-c3cccc(NC(=O)c4ccco4)c3)nc2c1`?
PMP22 txn prim: -30%; HTT promoter inh: -1%

What do the screens show for `Cc1cc(Nc2cccc(C(F)(F)F)c2)nc2ccc(NC(=O)c3ccc(=O)[nH]c3)cc12`?
PMP22 txn prim: inconclusive; HTT promoter inh: -23%

What do the screens show for `COc1ccc(CCNC(=O)C2(c3cccs3)CCOCC2)cc1`?
PMP22 txn prim: 5%; HTT promoter inh: -12%

How did Cc1ccc(Cn2cc(C(=O)c3ccc(F)cc3)c(=O)c3cc4c(cc32)OCO4)cc1 do in these assays?
PMP22 txn prim: inconclusive; HTT promoter inh: -24%

Results for CCOC(=O)C(C)Sc1ccc2nnc(CCNS(=O)(=O)c3ccc(C)cc3)n2n1 (centres undefined) ?
PMP22 txn prim: -5%; HTT promoter inh: 7%

Results for COC(=O)CN1C(=O)C(C)(C)c2cc(S(=O)(=O)Nc3ccc(Br)cc3F)ccc21 ?
PMP22 txn prim: 30%; HTT promoter inh: -23%

What do the screens show for `Cc1ccc(C)c(N2CCN(S(=O)(=O)c3csc(C(N)=O)c3)CC2)c1`?
PMP22 txn prim: inconclusive; HTT promoter inh: inconclusive

Results for CCC1Oc2ccc(C)cc2N(CC(=O)N2CCN(c3ccccc3OC)CC2)C1=O (centres undefined) ?
PMP22 txn prim: -8%; HTT promoter inh: inconclusive

What do the screens show for `CCOC(=O)c1noc2ncn(CC(=O)O)c(=O)c12`?
PMP22 txn prim: 19%; HTT promoter inh: 64%[activator]

How did COc1cc2ccccc2cc1C(=O)Nc1ccc2oc(-c3cc(Br)ccc3Cl)nc2c1 do in these assays?
PMP22 txn prim: 3%; HTT promoter inh: -10%

How did CCOC(=O)c1c(NC(=O)CSc2cn(CCNC(=O)c3cccc(C(F)(F)F)c3)c3ccccc23)sc2c1CCC2 do in these assays?
PMP22 txn prim: -5%; HTT promoter inh: -6%

Results for CC(=O)c1cccc(NC(=O)CN2C(=O)CN(C)C(=O)c3ccccc32)c1 ?
PMP22 txn prim: 14%; HTT promoter inh: 4%

What do the screens show for `CCCc1cc(=O)[nH]c2nnc(SCC)n12`?
PMP22 txn prim: 6%; HTT promoter inh: -5%

Results for CCc1ccc(NC(=O)Cn2c(=O)n(CCCC(=O)NCc3ccccc3Cl)c(=O)c3ccccc32)cc1 ?
PMP22 txn prim: inconclusive; HTT promoter inh: -5%

Results for COC(=O)CN1C(=O)CSc2ccc(S(=O)(=O)Nc3ccc(C(C)=O)cc3)cc21 ?
PMP22 txn prim: 2%; HTT promoter inh: -12%

How did CCOc1ccc(CNC(=O)c2ccc3c(c2)sc2nc(-c4ccc(OC)cc4)cn23)cc1 do in these assays?
PMP22 txn prim: -5%; HTT promoter inh: -18%

What do the screens show for `CC1(C)C(=O)N(CC(=O)Nc2ccc(OC(F)(F)F)cc2)c2ccccc21`?
PMP22 txn prim: -21%; HTT promoter inh: -28%

What do the screens show for `CC1CCC(NC(=O)c2ccc3c(c2)N(Cc2ccccc2)C(=O)c2ccccc2S3(=O)=O)CC1` (centres undefined)?
PMP22 txn prim: -11%; HTT promoter inh: 19%

Results for CCn1ccc2c(OCC(=O)NCc3ccccc3)cccc2c1=O ?
PMP22 txn prim: -2%; HTT promoter inh: -23%

Results for COC(=O)c1ccc(NC(=O)c2cc(S(=O)(=O)N3CCC(C)CC3)cn2C)cc1 ?
PMP22 txn prim: -3%; HTT promoter inh: -14%

How did CCOC(=O)c1cc(S(=O)(=O)N2CCN(c3cccc(OC)c3)CC2)[nH]n1 do in these assays?
PMP22 txn prim: -3%; HTT promoter inh: -31%

Results for O=C(O)c1ccc(S(=O)(=O)N(Cl)Cl)cc1 ?
HTT promoter inh: 7%

Results for CCS(=O)(=O)N1CCc2cc(C(=O)Nc3cc(OC)c(Cl)cc3OC)ccc21 ?
PMP22 txn prim: 21%; HTT promoter inh: -15%

What do the screens show for `CCCOc1ccc(-c2nonc2NC(=O)COc2ccc(C)cc2)cc1OCCC`?
PMP22 txn prim: -21%; HTT promoter inh: 2%

What do the screens show for `CCn1cc2nc(SCc3ccccc3F)n(Cc3ccc(C)cc3)c(=O)c2n1`?
PMP22 txn prim: inconclusive; HTT promoter inh: -29%

Results for Cc1cccc(NC(=O)CCNS(=O)(=O)c2ccc3c(c2)CCN3C(=O)C2CC2)c1 ?
PMP22 txn prim: inconclusive; HTT promoter inh: -4%

How did CCCCOc1ccc(CNC(=O)c2cnc3sc(N4CCCC4)nn3c2=O)cc1 do in these assays?
PMP22 txn prim: -27%; HTT promoter inh: -9%

Results for CCCCN(c1ccccc1)S(=O)(=O)c1ccc2c(c1)CC(C)N2C(=O)C1CC1 (centres undefined) ?
PMP22 txn prim: inconclusive; HTT promoter inh: inconclusive

Results for CCOC(=O)c1c(C)[nH]c(C)c1S(=O)(=O)N(C)CC(=O)Nc1cc(Cl)ccc1C ?
PMP22 txn prim: -18%; HTT promoter inh: inconclusive

What do the screens show for `Cc1ccc(NC(=O)CCCn2nc(C)c3sc4ccccc4c3c2=O)c(Cl)c1`?
PMP22 txn prim: -20%; HTT promoter inh: 5%

What do the screens show for `O=C(CSc1nc2ccccc2nc1Cc1ccc(Cl)cc1)N1CCN(c2ccccc2F)CC1`?
PMP22 txn prim: -28%; HTT promoter inh: -4%

What do the screens show for `Cc1cc(Cl)ccc1NC(=O)C1CCCN(c2nnc(C)c3c(C)n(-c4ccccc4)nc23)C1` (centres undefined)?
PMP22 txn prim: 8%; HTT promoter inh: -7%

How did CCOC(=O)c1ccccc1NC(=O)CN(c1ccccc1OC)S(=O)(=O)c1ccc(C)cc1 do in these assays?
PMP22 txn prim: inconclusive; HTT promoter inh: inconclusive

Results for Cc1ccc(S(=O)(=O)N2CCC(Oc3ccc(-n4cnnn4)cc3)CC2)cc1 ?
PMP22 txn prim: -1%; HTT promoter inh: -3%

Results for COC(=O)c1cc(NC(=O)c2oc(=O)c3ccccc3c2-c2ccccc2)cc(C(=O)OC)c1 ?
PMP22 txn prim: inconclusive; HTT promoter inh: -8%

Results for CCOC(=O)c1c(NC(=O)c2cc3nc(-c4ccc(Br)cc4)cc(C(F)(F)F)n3n2)sc(C(C)=O)c1C ?
PMP22 txn prim: -4%; HTT promoter inh: -4%

What do the screens show for `O=C1CC(c2ccccc2C(F)(F)F)c2c(c3ccccc3[nH]c2=O)O1` (centres undefined)?
PMP22 txn prim: 0%; HTT promoter inh: -10%

Results for CC(=O)c1ccc(NC(=O)CSc2nnc3c(n2)[nH]c2ccccc23)cc1 ?
PMP22 txn prim: inconclusive; HTT promoter inh: -21%

How did CCCCN(C)CCNC(=O)c1nn(-c2ccc(OC)c(Cl)c2)c(=O)c2c1c1ccccc1n2C do in these assays?
PMP22 txn prim: -5%; HTT promoter inh: 2%

How did Cc1ccc(-n2nc(CO)c(C(=O)NCC(c3ccccc3)c3ccccc3)n2)cc1 do in these assays?
PMP22 txn prim: -22%; HTT promoter inh: 7%

What do the screens show for `Nc1ncnc2c1c(-c1cnc3[nH]ccc3c1)nn2C1CCCC1`?
HTT promoter inh: inconclusive

Results for O=C(Nc1sc2c(c1C(=O)NCC1CCCO1)CCC2)c1cc(=O)c2cc(Cl)ccc2o1 (centres undefined) ?
PMP22 txn prim: 9%; HTT promoter inh: 0%

How did COc1ccccc1N1CCN(C(=O)c2cc(-c3ccccc3O)on2)CC1 do in these assays?
PMP22 txn prim: 19%; HTT promoter inh: -10%[11.5 µM]

Results for CSc1ccc(C2c3[nH]c4ccccc4c3CCN2C(=O)CCC2CCCC2)cc1 (centres undefined) ?
PMP22 txn prim: -4%; HTT promoter inh: inconclusive

Results for CCOC(=O)c1ccc(NC(=O)Cn2cc(C(=O)C3CC3)c3ccccc32)cc1 ?
PMP22 txn prim: 1%; HTT promoter inh: inconclusive

How did Cc1ccc(C)c(S(=O)(=O)c2nnn3c2nc(NC2CCCCC2)c2sccc23)c1 do in these assays?
PMP22 txn prim: inconclusive; HTT promoter inh: inconclusive

Five compounds drawn at random from the list so far:
How did Cc1ccc(-n2nc(CO)c(C(=O)NCC(c3ccccc3)c3ccccc3)n2)cc1 do in these assays?
PMP22 txn prim: -22%; HTT promoter inh: 7%

How did COc1ccccc1N1CCN(C(=O)c2cc(-c3ccccc3O)on2)CC1 do in these assays?
PMP22 txn prim: 19%; HTT promoter inh: -10%[11.5 µM]

Results for O=C(Nc1sc2c(c1C(=O)NCC1CCCO1)CCC2)c1cc(=O)c2cc(Cl)ccc2o1 (centres undefined) ?
PMP22 txn prim: 9%; HTT promoter inh: 0%

Results for CCOC(=O)c1ccc(NC(=O)Cn2cc(C(=O)C3CC3)c3ccccc32)cc1 ?
PMP22 txn prim: 1%; HTT promoter inh: inconclusive

How did Cc1ccc(C)c(S(=O)(=O)c2nnn3c2nc(NC2CCCCC2)c2sccc23)c1 do in these assays?
PMP22 txn prim: inconclusive; HTT promoter inh: inconclusive

Later entries:
How did CN(C)c1ccc(CN(Cc2ccco2)C(=O)c2ccc(C(C)(C)C)cc2)cc1 do in these assays?
PMP22 txn prim: inconclusive; HTT promoter inh: -29%

How did CCOc1cccc2cc(-c3cn4c(n3)sc3ccccc34)c(=O)oc12 do in these assays?
PMP22 txn prim: inconclusive; HTT promoter inh: 2%

How did CCOc1ccc(NC(=O)Nc2ccc3snnc3c2)cc1 do in these assays?
PMP22 txn prim: 2%; HTT promoter inh: -8%

How did COc1cc(Cl)c(C)cc1NC(=O)CCc1c(C)nc2cc(-c3cccc(F)c3)nn2c1C do in these assays?
PMP22 txn prim: 10%; HTT promoter inh: inconclusive

Results for O=C(Cn1c(=O)nc(-c2ccccc2)c2ccccc21)NCCc1ccc(Cl)cc1 ?
PMP22 txn prim: inconclusive; HTT promoter inh: -13%

How did CCOC(=O)c1cccc(NC(=O)c2ccc3snnc3c2)c1 do in these assays?
PMP22 txn prim: -25%; HTT promoter inh: -4%

How did Cc1ccc(-n2ncc3c(N4CCN(C)CC4)ncnc32)cc1Cl do in these assays?
PMP22 txn prim: inconclusive; HTT promoter inh: -23%

What do the screens show for `COc1ccccc1CNC(=O)CCn1c(=O)c2cccn2c2cccnc21`?
PMP22 txn prim: 1%; HTT promoter inh: 0%
